Screening results: PubChem BioAssay, National Center for Advancing Translational Sciences (NCATS)
AmpC nodet inh: inhibitors of E. coli AmpC beta-lactamase without detergent; Potency, µM (titrated, usually from 28.7 µM), for the others: at the top dose activity change, negative = inhibition; hit rate 1.8% among 71,000; P00811; AmpC nitrocefin hydrolysis, absorbance 480 nm, no detergent; potencies from a single point are estimates; active = falling curve, for most hits resting on a single point; inconclusive = weak or doubtful change; inactive = flat or rising curve; further: % of control where 0% means no effect; about half of the hits show no inhibition at the top dose; a quarter of the inactives give rising signals
Target sequence (P00811 whole entry, looked up): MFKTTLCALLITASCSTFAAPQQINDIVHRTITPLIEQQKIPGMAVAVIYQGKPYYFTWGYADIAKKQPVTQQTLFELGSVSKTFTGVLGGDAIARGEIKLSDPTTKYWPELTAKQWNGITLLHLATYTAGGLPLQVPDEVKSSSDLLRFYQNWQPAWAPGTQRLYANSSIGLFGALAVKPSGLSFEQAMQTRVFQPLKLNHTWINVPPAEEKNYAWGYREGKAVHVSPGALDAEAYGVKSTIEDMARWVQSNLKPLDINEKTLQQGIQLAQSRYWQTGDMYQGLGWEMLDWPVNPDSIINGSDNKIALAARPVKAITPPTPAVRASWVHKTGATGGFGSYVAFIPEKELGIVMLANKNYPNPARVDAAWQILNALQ
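Enzyme, pH 7.0 phosphate. Compound titrations were pre-incubated with AmpC for 15 min at room temperature before nitrocefin (stock 800 uM) addition; product formation was recorded at 480 nm every 20 s for 4 min.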
* marks the source's active call; other numbers are inactive results; ? = inconclusive; & = joins results of further samples; [ ] = another dose, or the depositor's remark. Potency means the concentration at half of the fitted maximal effect. A portion of the library. The share of hits here may be higher or lower than overall.

SMILES	AmpC nodet inh
Cc1nc2nc(-c3ccccc3)cn2nc1C	0%
CCOc1ccc(-c2nnc3ccc(SCC(=O)N4CCCCC4)nn23)cc1	8%
O=C(OC1CCOC1=O)c1ccc2ncsc2c1 (stereo unspecified)	-6%
CN1CCN(c2nc3c(c(=O)n(C)c(=O)n3C)n2CC(N)=O)CC1	1%
CN(CCc1ccccn1)C(=O)Nc1ccc(F)cc1	-9%
Cc1cccc(CN2CCN(CC(=O)NCc3ccc(F)cc3)C2=O)c1	40%
COc1ccccc1NC(=O)CN1C(=O)NC(C)(C)C1=O	-2%
O=C1c2cccnc2C(O)N1Cc1ccc(F)cc1 (stereo unspecified)	2%
CCN(CCNC(=O)C1CCCN(S(=O)(=O)CC)C1)c1ccccc1 (stereo unspecified)	18%
COc1cccc2cc(-c3csc(CCn4nc(C)cc4C)n3)c(=O)oc12	71%
Cc1cc(NC(=O)CSc2nnc(-c3ccoc3C)n2N)no1	-12%
Fc1ccccc1CSc1nnc(-c2ccccc2)o1	13%
CCOC(=O)C(CC)Sc1nc(N)c(NC(=O)c2ccc(OC)c(OC)c2)c(=O)[nH]1 (stereo unspecified)	6%
C[C@H]1[C@H](O)[C@@H](C)C=CC=CC=CC=CC=CC=CC=C[C@H](O[C@@H]2O[C@@H](C)[C@H](O)[C@@H](N)[C@@H]2O)C[C@@H]2O[C@](O)(C[C@@H](O)C[C@@H](O)[C@@H](O)CC[C@@H](O)C[C@@H](O)CC(=O)O[C@H]1C)C[C@H](O)[C@H]2C(=O)O	103%[5.75 µM]
O=C1NC(c2cccs2)Nc2sc3c(c21)CCCC3 (stereo unspecified)	-9%
Cc1nc2ncnn2c(N2CCC(C(=O)NCC3CCCO3)CC2)c1Cc1ccccc1 (stereo unspecified)	26%
COc1cc(C(=O)OC(C)CN2CCN(C)CC2)cc(OC)c1OC (stereo unspecified)	4%
Cc1cc(NC(=O)CSc2nnc(C3COc4ccccc4O3)o2)no1 (stereo unspecified)	-8%
CC1CCCN(C(=O)c2ccncc2)C1 (stereo unspecified)	-3%
CCC(=O)NC(C)C(c1cccs1)N1CCN(c2ccccc2)CC1 (stereo unspecified)	68%

Of the compounds above, these have a thiophene ring, fused or not:
SMILES	AmpC nodet inh
O=C1NC(c2cccs2)Nc2sc3c(c21)CCCC3 (stereo unspecified)	-9%
CCC(=O)NC(C)C(c1cccs1)N1CCN(c2ccccc2)CC1 (stereo unspecified)	68%

The list goes on.
SMILES	AmpC nodet inh
COc1ccc(/C(O)=C2/C(=O)C(=O)N(CCCC(=O)O)C2c2ccc(OC)cc2)cc1 (stereo unspecified)	-16%
CN=CC1=C(O)c2ccccc2C1=O	-16%
CC#CCOC(=O)c1c(C)nc2sc3c(c2c1N)CC[C@@H](O)C3	9%&44%
O=C(O)c1cc(Cl)ccc1Cl	-7%
COc1ccc(C(=O)N2CCC3(CCN(Cc4ccccc4)CC3)CC2)cc1	22%
COc1c(F)c(F)c(C(=O)Nc2ccccc2N2CCN(C(=O)C(C)C)CC2)c(F)c1F	62%
O=C(C1=C(O)C(=O)N(Cc2ccccc2)C1c1cccnc1)c1ccco1 (stereo unspecified)	-10%
COc1cccc(C(=O)Nc2ncc3c(n2)CC(C)CC3=O)c1 (stereo unspecified)	26%
CCC1(CC)C(=O)NC(=O)NC1=NCCc1c[nH]c2ccccc12	-2%
c1ccc2[nH]c(CN3CCCCCC3)nc2c1	-15%

Reprinted at random: 6 entries already listed.
SMILES	AmpC nodet inh
CN1CCN(c2nc3c(c(=O)n(C)c(=O)n3C)n2CC(N)=O)CC1	1%
C[C@H]1[C@H](O)[C@@H](C)C=CC=CC=CC=CC=CC=CC=C[C@H](O[C@@H]2O[C@@H](C)[C@H](O)[C@@H](N)[C@@H]2O)C[C@@H]2O[C@](O)(C[C@@H](O)C[C@@H](O)[C@@H](O)CC[C@@H](O)C[C@@H](O)CC(=O)O[C@H]1C)C[C@H](O)[C@H]2C(=O)O	103%[5.75 µM]
Cc1cccc(CN2CCN(CC(=O)NCc3ccc(F)cc3)C2=O)c1	40%
O=C(C1=C(O)C(=O)N(Cc2ccccc2)C1c1cccnc1)c1ccco1 (stereo unspecified)	-10%
COc1c(F)c(F)c(C(=O)Nc2ccccc2N2CCN(C(=O)C(C)C)CC2)c(F)c1F	62%
CCC(=O)NC(C)C(c1cccs1)N1CCN(c2ccccc2)CC1 (stereo unspecified)	68%

Later entries.
SMILES	AmpC nodet inh
COc1ccc(-n2c(C)nc3c(cnn3-c3ccc(C)c(C)c3)c2=O)cc1	17%
c1ccc2[nH]c(SCCN3CCOCC3)nc2c1	-7%
CN(Cc1ccco1)c1cc(-c2cccc(C#N)c2)ncn1	17%
O=C(NC(=O)c1cccc(OC(F)(F)C(F)F)c1)OC1CCS(=O)(=O)C1 (stereo unspecified)	10%
O=C(CSc1ccc2nnc(-c3ccncc3)n2n1)NCC1CCCO1 (stereo unspecified)	0%
CCC(=O)N(Cc1cc2cc(OC)ccc2[nH]c1=O)c1cccc(C)c1	35%
CN(C)C(=O)CSc1nnc(CCCCCNC(=O)OC(C)(C)C)o1	27%
COc1ccc(S(=O)(=O)Nc2ccc(F)c(Cl)c2)cc1OC	-4%
Cc1cc(C)c(C)c(OCC(=O)NCC2CCCO2)c1 (stereo unspecified)	18%
COC(=O)[C@H](CCSC)NC(=O)NCCC1=CCCCC1	1%
CCN1CCN(C(C(=O)NC2CCCC2)c2ccc(Cl)cc2)CC1 (stereo unspecified)	1%
O=c1c(-c2ccc(F)cc2)nc2cnc(Nc3ccccc3)nc2n1C1CC1	-2%
CCCSc1nc(N)c(C#N)c(-c2ccc(C)cc2)c1C#N	-20%
COc1ccc(OC)c(C(=O)CSc2nnnn2C)c1	-3%
CCCCn1c(SCC(=O)Nc2cc(C)on2)nc2ccsc2c1=O	13%
O=C(c1csnn1)N1CCC2(CCCN(c3cccc(-c4ccccc4)c3)C2)CC1	59%
CCS(=O)(=O)NCCc1cc2ccc(C)cc2[nH]c1=O	-11%
CCc1ccc2oc(=O)cc(CN3CCCCC3C)c2c1 (stereo unspecified)	-22%
CCOC(=O)C1=C(C)N(C)C(C)=C(C(=O)OCC)C1c1ccncc1	57%
N#CCSc1nnc(C2CCCCC2)n1Cc1ccccc1	21%
Cc1cccc(-n2ncc3c(NCc4ccccc4)ncnc32)c1	4%
COc1ccc(S(=O)(=O)N2CCOCC2)cc1C(C)C	20%
CC(=O)c1cccc(NS(=O)(=O)c2c(C)noc2C)c1	-19%
CC(=O)c1ccc(NC(=O)c2cc(CC(C)C)on2)cc1	4µM*[single pt active]
C=CCNC(=O)CN1C2CCCC1CC(NC(=O)c1ccccc1C)C2 (stereo unspecified)	-7%
CCn1cnc2sc(C(=O)Nc3ccc4c(c3)OCO4)c(C)c2c1=O	12%
O=C(O)c1ccc([N+](=O)[O-])c(P(=O)(O)O)c1	-1%[5.75 µM]
CC12CC(NC(=O)N1c1cccc(C(=O)NCc3ccc4c(c3)OCO4)c1)c1cc(Cl)ccc1O2 (stereo unspecified)	39%
Cn1c(SCC(=O)N2CCN(Cc3ccccc3)CC2)nnc1-c1ccncc1	89%
CCN(C(=O)c1cc(Cl)ccc1OC)C1CCCCC1	48%
CCOC(=O)CN1C(=O)C(O)=C(C(C)=O)C1c1ccccc1 (stereo unspecified)	1%
COCc1cc(C)nc(SCC(=O)Nc2cccc3cccnc23)c1C#N	9%
CC(C)(C)OCC(NC(=O)C(CC(N)=O)NC(=O)OC(C)(C)C)C(=O)OC(C)(C)C (stereo unspecified)	59%
COc1ccc(NC(=O)CS(=O)CC(=O)NC2CCCc3ccccc32)cc1 (stereo unspecified)	15%
O=C(Nc1nccs1)Oc1ccccc1	-5%
COc1ccc(C2CC(C(F)(F)F)n3ncc(C(=O)NCc4cccnc4)c3N2)cc1OC (stereo unspecified)	72%
COc1ccc(CCNC(=O)CC2Nc3cc(C)c(C)cc3NC2=O)cc1OC (stereo unspecified)	55%
CS(=O)(=O)N1CCc2cc(-c3csc(NC(=O)Cc4cccs4)n3)ccc21	?
CCc1cc(=O)oc2cc(OCC(=O)OC)c(Cl)cc12	13%
Cn1c(COc2ccccc2)nnc1SCc1nc2ccccc2[nH]1	-1%
CC(=O)C1=C(C)Nc2ncnn2C1c1cccc(OCc2ccccc2)c1 (stereo unspecified)	4µM*[single pt active]
O=C(CSCCNS(=O)(=O)c1ccccc1)Nc1ccccc1	-20%
Cc1noc(NS(=O)(=O)c2ccc(NC(=O)CSc3n[nH]c(-c4ccccc4)n3)cc2)c1C	-2%
CCC(=O)n1nc(NCc2ccc(OC)c(OC)c2)nc1NCc1ccc(OC)c(OC)c1	124%
Nc1n[nH]c(S(=O)(=O)CCCc2ccccc2)n1	-2%
O=C(Nc1ccc(Oc2ccccc2)cc1)C1CCCO1 (stereo unspecified)	30%
CC(C)c1nnc(NC(=O)c2c(O)c3cccc4c3n(c2=O)CCC4)s1	116%
COc1ccc(C2c3c(oc4ccccc4c3=O)C(=O)N2CC2CCCO2)cc1 (stereo unspecified)	48%
CCOCCn1c(=O)c2c(nc3n2CCN3c2ccccc2)n(C)c1=O	30%
CCc1cccc(C)c1NC(=O)C1CCCO1 (stereo unspecified)	-4%

Rewritten as labelled records: entries from further up.
> COc1ccc(C(=O)N2CCC3(CCN(Cc4ccccc4)CC3)CC2)cc1
  AmpC nodet inh = 22%

> COc1c(F)c(F)c(C(=O)Nc2ccccc2N2CCN(C(=O)C(C)C)CC2)c(F)c1F
  AmpC nodet inh = 62%

> O=C(C1=C(O)C(=O)N(Cc2ccccc2)C1c1cccnc1)c1ccco1 (stereo unspecified)
  AmpC nodet inh = -10%

The listing continues.
SMILES	AmpC nodet inh
Cc1ccc(S(=O)(=O)N2C(=S)SCC2(C)C)cc1	5%
O=C(NCc1ccccc1)N[C@@H](Cc1ccccc1)C(=O)O	-4%
OCCN(CCO)CC(O)Cn1c2ccccc2c2ccccc21 (stereo unspecified)	21%
CCOC(=O)C1CCCN(CC(=O)Nc2c(C(=O)OC)[nH]c3ccccc23)C1 (stereo unspecified)	43%
CCCCNC(=O)c1nnn(-c2ccccc2)c1N	-4%
C=CCn1c(SCC(O)Cn2c3ccccc3c3ccccc32)nnc1-c1ccco1 (stereo unspecified)	31%
N#Cc1cc2ccccc2nc1SCC(=O)Nc1ccccc1N1CCOCC1	8%
COc1cc(C(=O)NCC(c2cccnc2)N2CCN(C)CC2)cc(OC)c1OC (stereo unspecified)	-4%
O=S1(=O)CC(N2CCOCC2)c2ccccc21 (stereo unspecified)	-3%
CCOC(=O)C1CCN(/C=C2/C(=O)NC(=O)N(c3ccc(OCC)cc3)C2=O)CC1	-1%
CCOc1cc(C(=O)NCCN2CCOCC2)cc(OCC)c1OCC	46%
CCSc1nnc2c(n1)OC(c1ccc(C(=O)O)cc1)N(C(C)=O)c1ccccc1-2 (stereo unspecified)	5%
c1coc(CNc2nc3ccccc3n2CCN2CCOCC2)c1	-2%
CCC(C)N(C(=O)COC(=O)Cc1n[nH]c(=O)c2ccccc12)C1CCS(=O)(=O)C1 (stereo unspecified)	5%
CC(=O)O[C@H]1CC[C@H]2[C@@H]3CCC4=C[C@@H](C5SCCS5)[C@H](OC(C)=O)C[C@]4(C)[C@H]3CC[C@@]12C	1%[5.75 µM]
CCc1ccc2[nH]c(=O)c(CN(Cc3ccc4c(c3)OCO4)C(=O)c3ccco3)cc2c1	9%
CCOC(=O)c1ccc(S(=O)(=O)N2CCN(S(=O)(=O)CC)CC2)cc1	8%
O=C(O)c1ccccc1/C=N\N=C1c2ccccc2-c2ccccc21	-13%[5.75 µM]
COCCCNC(=O)CCS(=O)(=O)Cc1ccc(C)cc1	1%
O=C(c1ccccc1F)N1CCN(c2cccc(C(F)(F)F)c2)CC1	86%
C#CCN1C(=O)C(O)(CC(=O)c2cccc(OC)c2)c2ccccc21 (stereo unspecified)	16%
CCOC(=O)C1=C(CSc2nccn2C)NC(=O)NC1c1ccc2c(c1)OCO2 (stereo unspecified)	13%
CCC1Oc2ccc(C)cc2N(CC(=O)NCc2cc(OC)ccc2OC)C1=O (stereo unspecified)	-4%
Cc1nn(-c2ccc(C(=O)Nc3nnc(C4CC4)s3)cc2)c(C)c1Cl	?
Cc1nc2ccc(NC(=O)Cc3cccs3)cc2s1	-6%
COc1ccc(-n2c(Cc3cccn3C)nnc2SCC(=O)N2CCCC2)cc1	122%
CCn1c(C(C)NC(=O)c2cccs2)nc2ccccc21 (stereo unspecified)	2%
Cc1cc2c(c(=O)o1)C1(C(=O)N(CC(=O)O)c3ccccc31)C(C#N)=C(N)O2 (stereo unspecified)	-3%
Cc1ccc(N(CC(=O)O)S(=O)(=O)c2cccc3nonc23)cc1	4%
O=C(Nc1cccc(F)c1)c1cccc(S(=O)(=O)N2CCOCC2)c1	6%

Given bar-delimited: four of the compounds above
Structure | AmpC nodet inh
Cc1nc2nc(-c3ccccc3)cn2nc1C | 0%
CCOc1ccc(-c2nnc3ccc(SCC(=O)N4CCCCC4)nn23)cc1 | 8%
O=C(OC1CCOC1=O)c1ccc2ncsc2c1 (stereo unspecified) | -6%
CN1CCN(c2nc3c(c(=O)n(C)c(=O)n3C)n2CC(N)=O)CC1 | 1%

New compounds follow
SMILES	AmpC nodet inh
CCOC(=O)c1sc(=S)n(-c2ccc(F)c(F)c2)c1N	-6%
Cc1noc(C)c1-c1cc(N(C)Cc2ccco2)ncn1	24%
COC(=O)c1[nH]c2cc(OC)ccc2c1NC(=O)CN1CCC(C(N)=O)(N2CCCCC2)CC1	59%
O=C(NCc1cn2ccsc2n1)c1cccs1	0%
CCCCOc1ccc(C(=O)N2CCC(C)CC2)cc1	33%
CCN1CCN(CC(O)COc2cccc(OC)c2)CC1 (stereo unspecified)	1%
CCC(C)(C)c1ccc(O)cc1	-12%
